MARV entry inh – blocks Marburg virus binding to or entry into cells; AID 540276; Potency, µM (top dose mostly 37.8 µM), inactives show top-dose activity change, negative = inhibition, hits mostly inhibitors; actives 1.8% (n = 300,000); Marburg virus pseudotyped entry inhibition, cell reporter; control for the full effect not named in the record; about a third of the inactives were read at about 46 µM; active = well fitted inhibition curve with a large enough effect; inconclusive = small, poorly fitted or top-dose-only effect, or effect the other way; inactive = flat fitted curve, though single readings scatter; tested in HEK293 cells; about a fifth of its hits are not listed in these tables; further: on the % scale 0 is the no-effect control and ±100 the full control effect; luciferase read-out
Cruzain inh Det – blocks cruzain activity in presence of Triton detergent. AID 1478. P25779. actives 0.43% (n = 200,000). Potency, µM, without a hit: max response, negative = inhibition, usual class: inhibitors. purified cruzain, Z-FR-AMC fluorescence, 0.01% Triton;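 further: plate controls were neutral wells for no effect and buffer without enzyme for full effect; nearly all actives have a fitted effect of over 40% in size; top concentration of the series not given in the record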
Target sequence (P25779 123-467 limits assumed): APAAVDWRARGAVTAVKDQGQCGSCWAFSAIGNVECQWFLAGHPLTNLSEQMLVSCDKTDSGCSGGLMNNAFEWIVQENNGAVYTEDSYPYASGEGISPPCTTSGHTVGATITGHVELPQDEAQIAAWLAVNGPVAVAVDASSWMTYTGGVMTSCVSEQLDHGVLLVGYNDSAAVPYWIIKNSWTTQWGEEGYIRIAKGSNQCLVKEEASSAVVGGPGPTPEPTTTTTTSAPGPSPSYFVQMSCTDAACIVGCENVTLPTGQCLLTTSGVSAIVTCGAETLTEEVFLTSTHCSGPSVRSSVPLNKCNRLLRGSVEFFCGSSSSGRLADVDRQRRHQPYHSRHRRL
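Sodium acetate buffer (100 mM, pH 5.5) containing 5 mM DTT and 0.01% Triton X-100 hosted 1.5 nM cruzain and test compound for 15 min at room temperature. Cleavage of 2 uM Z-FR-AMC was then tracked by fluorescence.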
Cruzain noTriton – cruzain (T. cruzi) inhibition without detergent. P25779. actives 2.3% (n = 200,000). purified cruzain, Z-FR-AMC fluorescence, no detergent. Potency, µM, for the others: max response, negative = inhibition, usual class: inhibitors. AID 1476;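 further: plate controls were enzyme without inhibitor for no effect and buffer without enzyme for full effect; nearly all actives have a fitted effect of over 40% in size; top concentration of the series not given in the record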
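Purified cruzain at 1.5 nM, pre-incubated 15 min with compound at room temperature in 100 mM sodium acetate pH 5.5, 5 mM DTT, 0.00005% Triton X-100. Reaction started with 2 uM Z-FR-AMC; AMC fluorescence increase over 60 s gives rate.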
Lassa entry inh – blocks Lassa virus binding to or entry into cells; actives 1.2% (n = 300,000); Lassa virus pseudotype entry inhibition, cell reporter; control for the full effect not named in the record; Potency, µM (series often up to 37.9 µM), for the others: top-dose activity change, negative = inhibition, actives largely listed as inhibitors; AID 540256; active means well fitted inhibition curve with a large enough effect; inconclusive means small, poorly fitted or top-dose-only effect, or effect the other way; inactive means flat fitted curve, though single readings scatter; tested in HEK293 cells; further: on the % scale 0 is the no-effect control and ±100 the full control effect; nearly all actives have a fitted effect of over 50% in size; luciferase read-out
2A StopGo – FMDV 2A StopGo reporter, luciferase signal; human cells with a luciferase reporter of 2A StopGo recoding; control for the full effect not named in the record; Potency, µM (highest dose often 57.9 µM), for the others: top-dose signal change, negative = less light; actives 1.2% (n = 410,000); active = well fitted falling curve with a large enough effect; inconclusive = small, poorly fitted or top-dose-only effect; inactive = no such curve, though single readings can be large or run the other way; tested in HEK293T cells; further: on the % scale 0 is the no-effect control and ±100 the full control effect; nearly all actives have a fitted effect of over 45% in size; luciferase light after 4 h
NS1 function inh – influenza NS1 inhibition; S. cerevisiae slowed by influenza A NS1, growth recovery by OD600; Potency, µM (highest dose often 46.1 µM), without a hit: top-dose activity, positive = more growth; actives 0.4% (n = 270,000); active means well fitted rising curve with a large enough effect; inconclusive means small, poorly fitted or top-dose-only effect; inactive means no such curve, though single readings can be large or run the other way; further: nearly all actives have a fitted effect of over 50% in size
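Recovery from NS1-induced slow growth read by OD600 in budding yeast switched to galactose assay medium (pH 6.0, -URA) at 1:100 dilution. Compound 23 nl per well; the matching strain lacking NS1 serves as control.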
SARS PLpro yeast – SARS-CoV PLP inhibition in yeast. S. cerevisiae expressing SARS-CoV PLpro, growth rescue; control for the full effect not named in the record. Potency, µM (doses to about 32.9 µM), inactives show at the top dose activity, positive = growth rescue. actives 0.19% (n = 330,000); active means well fitted rising curve with a large enough effect; inconclusive means small, poorly fitted or top-dose-only effect; inactive means no such curve, though single readings can be large or run the other way; further: 0% is about no effect; nearly all actives have a fitted effect of over 55% in size; growth read by luminescence after 48 h
RE007 growth inh – less growth of the S. pombe RE007 Vpr strain; S. pombe RE007 Vpr strain, BacTiter-Glo ATP luminescence, 24 h; control for the full effect not named in the record; Potency, µM (titrated, usually from 92.2 µM), for the others: at the highest dose activity change, negative = less growth; actives 0.21% (n = 360,000); AID 651644; active = well fitted falling curve with a large enough effect; inconclusive = small, poorly fitted or top-dose-only effect; inactive = no such curve, though single readings can be large or run the other way;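 further: on the % scale 0 is the no-effect control and ±100 the full control effect; nearly all actives have a fitted effect of over 50% in size; the assay follows cell death caused by Vpr and the record does not say whether a fall means rescue or toxicity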
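Fission yeast RE007 carrying one integrated HIV-1 vpr copy, seeded at OD 0.01 in PMG+AL medium with 23 nL pinned compound. Grown 24 h at 30 degrees; viability read by BacTiter-Glo luminescence after 5 min.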
* = called active by the depositor; u = inconclusive; x = not tested or not shown; & = joins results of further samples; [ ] = remark or other dose. Unless noted, the call rests on the fitted dose curve; in most records, active means well fitted curve in the direction sought with a large enough effect; inconclusive means small, poorly fitted or top-dose-only effect, or another doubt; inactive means no such curve, though single readings can be large; an effect the other way counts as inactive or inconclusive. Potency means the concentration at half of the fitted maximal effect.

SMILES	MARV entry inh	Cruzain inh Det	Cruzain noTriton	Lassa entry inh	2A StopGo	NS1 function inh	SARS PLpro yeast	RE007 growth inh
Cc1ccnc2nc(C(=O)NCCc3ccc(F)cc3)nn12	u	2.2%	-6%	7%	-16%	-11%	2%	4%
O=C(OCC1OC(n2ccc(=O)[nH]c2=O)C(O)C1OC(=O)c1ccccc1)c1ccccc1 (stereo not given)	-17%	-0.3%	0%	-1%	-15%	-4%	0%	6%
COc1ccc(CCNC(=O)C2CCN(S(=O)(=O)c3ccc(C)cc3)CC2)cc1	x	x	x	x	-13%	u	1%	9%
Cc1ccc(CCNC(=O)c2cc(S(=O)(=O)N3CCCC3)cn2C)cc1	x	x	x	x	11%	2%	2%	-7%
CSc1ccc(CCNC(=O)CCc2nnc3ccc(N4CCOCC4)nn23)cc1	x	x	x	x	-12%	-1%	1%	-7%
COc1ccc(C(=O)OCC(=O)NCCCc2ccccc2)cc1[N+](=O)[O-]	0%	x	x	16%	-14%	1%	-1%	4%
Cn1c(NNC(=O)CCC2CCCCC2)cc(=O)n(C)c1=O	7%	-1.0%	5%	15%	-11%	-17%	-11%	15%
COc1cc(NC(=O)c2cc(-c3cccnc3)nc3ccc(Br)cc23)cc(OC)c1	u	x	x	11µM*	u	1%	0%	13%
COc1ccccc1NC(=O)CSc1nnc(Cc2cccs2)n1C	-8%	x	x	-1%	-1%	x	x	0%
CCc1cccc(NS(=O)(=O)c2ccc3c(c2)N(C)CCO3)c1	x	x	x	x	25%	-8%	-4%	1%
Cc1nc2nc[nH]n2c(=O)c1CCOC(=O)c1c(F)cccc1F	-19%[46.1 µM]	x	x	8%	-4%	3%	-2%	19%
OCc1ccccc1SSc1ccccc1CO	-28%[46.1 µM]	x	x	u	-25%	x	x	-10%
CCOCCCNS(=O)(=O)c1ccc(NC(=O)c2ccc([N+](=O)[O-])cc2Cl)cc1	-6%	-4.0%	4%	-11%	-4%	6%	10%	3%
O=C(CN1C(=O)C2CCCCN2c2ccc(C(=O)N3CCCC3)cc21)NCc1ccc(F)cc1 (stereo not given)	x	-1.4%	0%	-11%[46.1 µM]	27%	x	x	x
O=C(NCCN1C(=O)S/C(=C\c2cccnc2)C1=O)C1=NN(c2ccccc2)C(=O)CC1	1%[46.1 µM]	x	x	-13%	0%	-3%	0%	18%
O=C(NNC(=O)c1ccc([N+](=O)[O-])cc1C(=O)O)c1ccncc1	u	x	x	2%	-3%	-2%	-1%	2%
Nn1c(Cc2cccc3ccccc23)nnc1SCC(=O)NCC1CCCO1 (stereo not given)	-4%	x	x	-9%	-17%	x	u	4%
Cc1sc(N2C(=O)C3C4C=CC(C4)C3C2=O)c(C#N)c1C (stereo not given)	-16%	-3.0%	10%	20%	-13%	8%	13%	-13%
O=C(O)CCCn1cc(NC(=O)c2cccc(F)c2)cn1	-21%	x	x	11%	-3%	x	-2%	30%
Cc1ccccc1C(=O)N1CCC(C(=O)N(C)CC(=O)Nc2cccc(F)c2)CC1	6%[46.1 µM]	x	x	-13%[46.1 µM]	39%[activator]	11%	5%	17%
O=C(CO/N=C/c1ccc(OC(F)F)cc1)NCc1ccco1	u	x	x	2%[46.1 µM]	-3%	x	-2%	-16%
Cc1[nH]c2ccc(-c3nnc(SCC(=O)NCc4ccco4)n3Cc3ccccc3)cc2c1C	u	0.4%	-23%	u	-21%	3.5µM*	0%	37%
CCc1ccc(N(CC(=O)Nc2ccc(NC(C)=O)cc2)S(=O)(=O)c2ccccc2)cc1	-20%	-4.5%	u	u	-1%	u	-1%	1%
Cn1c(NCCCN2CCOCC2)nc2c1c(=O)n(Cc1ccc(Cl)c(Cl)c1)c(=O)n2C	u	0.6%	0%	-26%	u	-11%	7%	-3%
O=S(=O)(c1ccc(N2CCN(CCO)CC2)nc1)N1CCCCC1	3%	-1.1%	4%	6%	-13%	0%	-12%	2%
CN(C)c1nc(NCc2ccccc2)nc(Oc2ccc(=O)[nH]n2)n1	7%	0.1%	6%	5%	12%	-7%	4%	7%
CCOc1ccccc1NC(=S)NC(=O)C1CCCCC1	-29%[46.1 µM]	x	x	u	-22%	0%	-12%	-26%
CCCCC(CCC(=O)O)(C(=O)OCC)c1csc(N)n1 (stereo not given)	-3%	-2.0%	9%	1%	-1%	-10%	3%	-3%
O=C(NCC1CCCO1)c1cc(-c2ccncc2)nc2ccc(S(=O)(=O)N3CCOCC3)cc12 (stereo not given)	-14%&-14%	2.4%	7%	8%	10%	1%	0%	-16%
COc1cc(Cl)ccc1OCc1cc(C(=O)N2CC[C@@H]3CCCC[C@H]3C2)no1	-2%[46.1 µM]	x	x	u	38%[activator]	-6%	-35%	-17%
CC(C)(C)c1ccc(S(=O)(=O)NCC(=O)N2CCCC2)cc1	7%	x	x	3%	-5%	1%	-1%	2%
CCOC(=O)CN(C(=O)Cn1nnc(-c2ccc(C)cc2)n1)C(CC)C(=O)NC1CCCC1 (stereo not given)	-2%&15%	2.8%	u	17%[14.3 µM]	-20%	-7%	-2%	-11%
COc1ccc2c(c1)c(/C=N/Nc1nc3ccccc3[nH]1)c(C)n2C	u	x	x	u	u	0%	0%	7%
Cc1cc(C)c(O)c(-c2n[nH]c3c2C(c2cccc(O)c2)N(Cc2ccco2)C3=O)c1 (stereo not given)	x	x	x	x	-20%	5%	0%	18%
CN1CCCC(C(O)(c2ccccc2)c2ccccc2)C1 (stereo not given)	x	x	x	x	-16%	1%	2%	0%
C/C(=N\O)C1CC(CC(=O)O)C1(C)C (stereo not given)	5%	x	x	x	-19%	5%	-3%	x
Cc1ccc(S(=O)(=O)NN2C(=O)/C(=C/c3cccnc3)SC2=S)cc1	4%[46.1 µM]	x	x	6%[46.1 µM]	-8%	-5%	-7%	10%
O=S(=O)(c1cccc(-c2cn3ccccc3n2)c1)N1CCCCC1	x	x	x	x	-8%	2%	1%	9%
Cc1ccc(Cn2ccc(NC(=O)c3nn(C)cc3Cl)n2)cc1	6%[46.1 µM]	3.2%	8%	13%	29%	-84%	-6%	0%
CCOc1ccccc1C1C(C(N)=O)=C(C)Nc2nc(CCCO)nn21 (stereo not given)	x	2.4%	-6%	x	1%	3%	-1%	3%
Cc1ccc(-c2cc(C(F)(F)F)c(C#N)c(SCC(=O)Nc3ccccc3)n2)cc1	-3%[46.1 µM]	-1.0%	1%	-7%[46.1 µM]	-7%	x	x	x
O=C(Nc1nc2ccccc2s1)C1CCN(C(=O)c2ccco2)CC1	u	x	x	-29%	u	7%	-3%	21%
Cc1nc(-c2ccc3c(c2)OCCO3)cs1	19%[46.1 µM]	x	x	u	39%[activator]	x	1%	-23%
CS(=O)(=O)N1CCN(C(=N)N[N+](=O)[O-])CC1	6%[46.1 µM]	x	x	2%	-7%	x	0%	-14%
O=C(c1ccco1)N1CCN(c2cccc(Cl)c2)CC1	-16%	2.3%	-3%	-6%	x	-14%	-13%	-4%
COc1ccc(NC(=O)c2cc(CC(C)C)on2)cc1OC	x	-1.3%	1%	x	55%[activator]	-11%	-3%	-12%
Cc1ccc(-c2nc(CS(=O)CC(=O)NCCCN3CCN(Cc4ccccc4)CC3)c(C)o2)cc1 (stereo not given)	11µM*	x	x	u	-23%	3%	5%	2%
O=C(CSc1nccn1Cc1ccc(Cl)cc1)NC1CCCC1	x	-1.8%	-7%	-1%[46.1 µM]	-26%	x	x	x
Cn1cccc1Cc1nnc(SCC(=O)NCc2ccccc2)n1-c1ccc(F)cc1	x	0.6%	20%	x	-17%	-4%	2%	-2%
Cc1cc(C)c(C)c(S(=O)(=O)N2CCN(C(=S)NCC3CCCO3)CC2)c1C (stereo not given)	15%[46.1 µM]	x	x	-1%	-26%	x	-7%	12%
COc1ccc(C2OCC3(O)C(c4ccc(OC)c(OC)c4)OCC23)cc1OC (stereo not given)	x	x	x	x	-18%	7%	-1%	-8%
COc1cc(/C(=C/c2ccccc2)c2ccccc2)c2c(c1)oc1ccccc12	x	x	x	x	-20%	-3%	5%	-18%
N#Cc1cc2c(=O)n3ccccc3nc2n(Cc2ccco2)c1=NC(=O)c1ccco1	u	-9.0%	u	u	-14%	28%	5%	-1%
CCOc1cc(C2c3c(oc4ccccc4c3=O)C(=O)N2Cc2ccccc2Cl)ccc1O (stereo not given)	u	-1.9%	10%	11%[46.1 µM]	58%[activator]	x	x	x
O=C(Nc1nccs1)C(=O)c1c[nH]c2ccccc12	u	-2.3%	-21%	u	68%[activator]	-42%	-16%	-12%
CCOc1ccc(NC(=O)CSc2nnc(C)n2C2CC2)cc1S(=O)(=O)N1CCCC1	u	x	x	9%[46.1 µM]	-4%	x	0%	-3%
Cc1oc(C(C)(C)C)cc1C(=O)N1CCN(c2ncccc2C(F)(F)F)CC1	-2%	x	x	-23%	-23%	4%	1%	-9%
COc1ccc(C2C([N+](=O)[O-])=C(N)Oc3c2c(=O)oc2ccccc32)cc1 (stereo not given)	x	-2.8%	9%	x	x	9%	-1%	x
Cc1c(C(=O)O)oc2ccc(S(=O)(=O)N3CC(C)CC(C)C3)cc12 (stereo not given)	u	2.2%	3%	12%	40%[activator]	6%	4%	-6%
CCOc1c(Br)cc(C2CC(=O)Nc3cc(OC)c(OC)cc32)cc1OC (stereo not given)	0%	x	x	-20%	11%	9%	3%	14%
COCC1CCN(C(=O)c2ccc3oc(CCCc4ccccc4)nc3c2)C1 (stereo not given)	-16%	x	x	5%	20%	-6%	7%	-3%
CCOc1ccc(CNC(=O)c2cnc3sc(N4CCC(C)CC4)nn3c2=O)cc1OC	x	2.7%	-8%	16%[46.1 µM]	-17%	x	x	x
CCCCC(Br)C(=O)Nc1ccc(S(=O)(=O)Nc2cc(C)nc(C)n2)cc1 (stereo not given)	4%[46.1 µM]	x	x	22%	40%[activator]	3%	-2%	-3%

Screening data from PubChem BioAssay.
